TRPML1 blocker: blocks the human TRPML1 channel; AID 624415; 390,000 compounds, 0.02% hits; TRPML1-inducible cells, Ca2+ dye fluorescence, FDSS; hits give low values; inhibition of EC80 agonist-evoked calcium signal; Q9GZU1; activity change, negative = inhibition, % (concentration not given with the values); in the data active means activity change below about -50%; inconclusive means about -30% to -50%; inactive means above about -30%;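 note: stimulus is agonist 54-4 at its EC80 concentration; % is set by controls: 0 for no effect and ±100 for the full control effect; the text of the record puts the active cut at -80%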
Target sequence (Q9GZU1 whole entry, looked up): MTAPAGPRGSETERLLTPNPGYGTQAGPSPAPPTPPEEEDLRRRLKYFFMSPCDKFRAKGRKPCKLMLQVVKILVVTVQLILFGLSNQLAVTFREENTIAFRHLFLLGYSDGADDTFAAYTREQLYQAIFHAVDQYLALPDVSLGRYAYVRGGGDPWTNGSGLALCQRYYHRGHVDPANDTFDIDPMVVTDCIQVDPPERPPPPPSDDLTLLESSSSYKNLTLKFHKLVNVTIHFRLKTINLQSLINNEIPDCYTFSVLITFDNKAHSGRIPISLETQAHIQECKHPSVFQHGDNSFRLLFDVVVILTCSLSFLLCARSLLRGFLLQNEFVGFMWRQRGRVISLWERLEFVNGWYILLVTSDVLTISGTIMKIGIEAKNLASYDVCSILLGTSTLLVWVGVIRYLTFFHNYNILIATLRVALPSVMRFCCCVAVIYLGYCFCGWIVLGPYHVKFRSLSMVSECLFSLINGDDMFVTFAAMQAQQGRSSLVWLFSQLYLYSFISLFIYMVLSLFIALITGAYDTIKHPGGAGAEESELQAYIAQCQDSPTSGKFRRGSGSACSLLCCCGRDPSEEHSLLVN
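TRPML1-DL cells, Tet-induced overnight (~16 h, 37 °C) at 1,500 cells/well, were loaded with Ca8 no-wash dye plus quencher for 45-90 min at room temperature. Compounds were pinned during FDSS kinetic reading; agonist 54-4 at EC80 (4 uM final) then added.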
Menin-MLL FL inh: displaces fluorescein MLL peptide from human menin. Fluorescence polarization, fluorescein-MLL peptide displacement from menin. FP activity change, % at 61.4 µM. 290,000 tested, under 10 active; inconclusive = falling polarisation curve, or a change in total fluorescence; inactive = total fluorescence flat and polarisation flat or rising; no compound was filed as active; the % refers to the polarisation; negative = inhibition;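 note: % of control where 0% means no effect; inhibitors lower the polarisation; unlabelled MLL peptide was the positive control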
ClpP mod: qHTS Assay for Activators of ClpP; 340,000 compounds, 1.9% hits; Potency, µM (top dose mostly 57.5 µM), inactives show at the top dose activity change, negative = active; ATP-dependent Clp protease proteolytic subunit (Bacillus subtilis (strain 168)), P80244; purified B. subtilis ClpP, FRET peptide cleavage, 20 min; active = well fitted falling curve with a large enough effect; inconclusive = small, poorly fitted or top-dose-only effect; inactive = no such curve, though single readings can be large or run the other way; note: potency is the fitted concentration of half-maximal effect; the source files actives as falling curves though it sought activators and does not explain the sign; nearly all actives have a fitted effect of over 65% in size; many hits overshoot -100%
Target sequence (P80244 whole entry, looked up): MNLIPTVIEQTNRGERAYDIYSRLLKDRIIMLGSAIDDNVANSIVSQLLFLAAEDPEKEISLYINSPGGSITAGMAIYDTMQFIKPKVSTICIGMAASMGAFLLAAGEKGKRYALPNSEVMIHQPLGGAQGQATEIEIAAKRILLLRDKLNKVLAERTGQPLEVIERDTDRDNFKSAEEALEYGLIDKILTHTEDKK
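Purified B. subtilis ClpP, 10 microg/mL final in Tris/HCl pH8 with KCl, BSA, glycerol and Tween-20, cleaved an Abz/nitrotyrosine-quenched decapeptide. Fluorescence (ex 320, em 430) was read at 0 and 20 min at room temperature. Delta was normalized to 5.8 microM ADEP and DMSO/no-enzyme controls.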
TRPV1 potentiator: potentiators of human vanilloid receptor 1 (TRPV1) | 320,000 compounds, 0.02% hits | Q8NER1 | potentiation, % at 8.33 µM | AID 540277 | TRPV1-expressing cells, Fluo-8 calcium influx, capsaicin EC20 potentiation; host cell line not named in the record; control for the full effect not named in the record; active means potentiation above 80%; inconclusive means 30% to 80%; inactive means below 30%; note: 0% is about no effect
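Fluo-8 calcium influx in TRPV1-expressing cells, kinetic read (ex 480/em 520 nm). Compound added and read 3 min for agonist activity, followed by capsaicin at EC20 final and 2 min further read for enhancement.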
TRPML1 ag: human mucolipin-1 channel agonism; Q9GZU1; TRPML1-expressing cells, Ca2+ dye fluorescence, FDSS; host cell line not named in the record; reference of the full effect not given here; activation, % (test concentration not listed); 410,000 compounds, 0.12% hits; AID 624414; in the data active = activation above about 50%; inconclusive = about 30% to 50%; inactive = below about 30%; note: 0% is about no effect; the text of the record puts the active cut at 80%
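In this qHTS format, compounds were pin-transferred onto Ca8-dye-loaded TRPML1-DL cells induced with Tet overnight, and intracellular Ca2+ fluorescence was recorded kinetically for 110 s after a 10 s baseline. A subsequent 4uM final 54-4 (EC80) addition followed by a second 110 s read served as the antagonist phase.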
PINK1 expr mod: modulators of PINK1 expression; PINK1 immunofluorescence, high-content cytometry, 24 h; Potency, µM (series often up to 76.6 µM), inactives show top-dose activation (PINK1 increase), usual class: activators; 410,000 compounds, 0.2% hits; active = well fitted activation curve with a large enough effect; inconclusive = small, poorly fitted or top-dose-only effect; inactive = flat fitted curve, though single readings scatter; cell line not stated here;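 note: potency is the fitted concentration of half-maximal effect; % of control where 0% means no effect; nearly all actives have a fitted effect of over 65% in size; a mitochondrial uncoupler was the plate control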
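Measures PINK1 amount and localization on or inside mitochondria by immunofluorescence. Stable cells get compounds at 5 concentrations for 24 hours before fixation and staining; CCCP controls included.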
Sfp PPTase inh: Sfp phosphopantetheinyl transferase inhibition; Biochemical Sfp PPTase activity, qHTS; Q9F4F7; 310,000 compounds, 3.5% hits; Potency, µM, for inactives: max response, negative = inhibition, actives largely listed as inhibitors; active = well fitted inhibition curve with a large enough effect; inconclusive = small, poorly fitted or top-dose-only effect, or another doubt; inactive = no such curve, though single readings can be large or run the other way;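 note: the enzyme is Sfp with the accession as filed and its product quenches rhodamine fluorescence; potency is the fitted concentration of half-maximal effect; 0% = enzyme reaction without inhibitor and -100% = no enzyme wells; top concentration of the series not given in the record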
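Buffer: 50 mM Hepes-Na pH 7.6, 10 mM MgCl2, 0.01% Nonidet P-40, 0.01% BSA. Enzyme 15 nM, pre-exposed to compound 15 min; substrates then added and fluorescence change tracked over 30 min.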
* = called active by the depositor; ? = inconclusive; . = not tested or not shown; & = joins results of further samples; [ ] = another dose, or the depositor's remark. An unsorted share of the library; 4.4% or so of the library scored in one or more.

SMILES	TRPML1 blocker	Menin-MLL FL inh	ClpP mod	TRPV1 potentiator	TRPML1 ag	PINK1 expr mod	Sfp PPTase inh
OC(c1ccc(F)cc1)c1nc(-c2cccs2)cs1 (centres undefined)	.	.	-0.7%	.	-0.9	6.6%	.
Cc1oc(-c2ccc(Cl)cc2)nc1CN1CCC(C(=O)NCc2ccco2)CC1	-5	3.9	-3.9%	-8	0.5	0.0%[38.3 µM]	-11%
CCC(=O)Nc1ccc(C(=O)Nc2ccc3c(c2)OCO3)cc1	27	0.0	-5.8%	7	-0.3	2.1%	12%
COc1cc(OC)c(OC)cc1CN1CCc2ccccc2C1	-7	0.1	-1.0%	-2	0.3	.	-6%
COc1ccc(C2C(C(C)=O)=C(O)C(=O)N2c2nccs2)cc1OC (centres undefined)	27	3.4	-2.3%	-9	0.8	1.1%	-13%
COCCC(=O)N1CCCC(CNS(=O)(=O)c2ccc(OC)cc2)C1 (centres undefined)	-2	-3.0	-1.4%	11	0.2	0.7%	3%
COc1ccc(C(=O)Nc2ccccc2C(=O)N2CCCCC2C)cc1 (centres undefined)	-19	0.7	-0.1%	-12	-0.1	0.4%	13%
COC(=O)[C@H](Cc1ccccc1)NC(=O)N1CCN(Cc2ccccc2)CC1	12	2.4	4.3%	6	0.5	0.9%[38.3 µM]	12%
CCC(=O)NC(=S)Nc1ccc(NC(=O)c2cccnc2)cc1	0	4.1	-0.8%	2	-0.7	2.6%	8%
O=C(O)c1cc(N2C(=O)CCC2=O)ccc1Cl	-7	1.0	-1.0%	0	0.4	-0.4%	8%
CC(Oc1ccc(Cl)cc1Cl)C(=O)Nn1cnnc1 (centres undefined)	7	1.1	0.9%	0	-0.2	-3.7%	-1%
COCCNS(=O)(=O)c1cc(C(=O)O)ccc1OC	-9	-0.6	.	2	-0.7	-0.1%	6%
Cc1ccc2nc(NC(=O)CSc3nccn3Cc3ccc(Cl)cc3)sc2c1	39	.	0.5%	.	1.2	-2.5%	.
Fc1ccccc1OCCCCCN1CCCC1	3	1.7	-0.3%	1	0.3	0.8%	10%
CC1=[N+](C)N(c2ccccc2)C(=O)C1N=Cc1ccc(Cl)cc1 (centres undefined)	-3	-2.4	0.0%	?	0.3	1.0%	11%
COc1ccc2oc(=O)c(C(=O)NC3CCCCCC3)cc2c1	-4	3.6	0.8%	5	-0.4	0.6%	-5%
CCCCOc1ccc(C(=O)NCC(=O)N(C)Cc2nc3ccccc3c(=O)[nH]2)cc1	5	.	-3.2%	10	3.2	0.1%	.
Cc1ccc(OCC(=O)NNC(=O)C2CC(=O)N(c3ccc4c(c3)OCCO4)C2)cc1 (centres undefined)	14	.	-0.8%	-14	0.2	-0.8%	.
CCn1c(=O)n(CC)c2cc(N3CCCC3)c(NC(=O)c3ccccc3Br)cc21	16	-3.6	-1.1%	-19	-0.1	3.7%	-3%
COc1cc(CNC(=O)CCCCCCC(C)C)ccc1O	-5	6.0&-0.9	0.6%	-8	-0.2	3.5%	-1%
O=C(CCSc1nnc2scc(-c3ccccc3)n12)NCc1ccc2c(c1)OCO2	7	5.0	-2.6%	-10	3.1	-0.4%	-3%
CCN(c1ccccc1)S(=O)(=O)c1ccc(Cl)c(NC(=O)Nc2ccc(Cl)cc2C#N)c1	3	3.0	-1.6%	-1	0.8	-2.1%	15%
COc1cc(Br)c(CN2CCCN(C)CC2)cc1OC	4	1.1	-2.8%	2	-0.6	-1.0%	-2%
NC1=NC(c2ccc(F)cc2)n2c(nc3ccccc32)N1 (centres undefined)	21	0.3	0.2%	-1	3.1	0.7%[38.3 µM]	-6%
CC(C)(C)NS(=O)(=O)c1ccc(NC(=O)CS(=O)(=O)Cc2ccccc2)cc1	-8	.	-0.2%	0	0.5	0.6%	11%
Next entries.
SMILES	TRPML1 blocker	Menin-MLL FL inh	ClpP mod	TRPV1 potentiator	TRPML1 ag	PINK1 expr mod	Sfp PPTase inh
COc1ccc(C2CC(=O)C3=C(C2)Nc2ncnn2C3c2ccccc2C)c(OC)c1 (centres undefined)	4	3.1	-21%	-16	-0.8	?	19%
COc1cc(S(=O)(=O)Nc2cccc(C(=O)O)c2)c(OC)cc1Cl	-7	0.6	-1.2%	1	0.4	1.8%[38.3 µM]	-12%
Cn1cnc2cc(NCc3cccs3)ccc21	-10	1.4	.	8	0.2	2.8%	5%
COc1ccc2c(c1)c(CC(=O)Nc1cccc(S(N)(=O)=O)c1)c(C)n2C(=O)c1ccc(Cl)cc1	-18	2.8	.	0	1.8	5.8%	?
COc1ccc(CCNC(=O)c2cnc3ccc(C)cn3c2=O)cc1	3	.	-19%	.	-0.6	-1.3%	.
C[C@H](CO)N1C[C@H](C)[C@@H](CN(C)S(=O)(=O)c2cccs2)Oc2c(NC(=O)NC3CCCCC3)cccc2C1=O	-9	.	0.4%	.	-0.7	0.6%	.
Nn1c(C2CCC2)nc2ccccc2c1=O	16	1.6	.	19	-0.6	4.0%	9%
Cc1nc2sccn2c(=O)c1S(=O)(=O)NCc1ccc(F)cc1	3	.	-8.3%	.	-0.7	0.6%	.
COc1ccccc1NC(=O)/C(=C\c1cccnc1)NC(=O)c1ccc(C)cc1	-12	5.0	1.7%	16	1.7	0.2%	7%
O=C(Cn1c(=O)oc2cc(S(=O)(=O)N3CCCC3)ccc21)NC1CCCc2ccccc21 (centres undefined)	-2	6.5	1.8%	-3	-0.1	1.5%	20%
CCCc1ccc(-c2cc(C(=O)N/N=C/c3ccc([N+](=O)[O-])o3)c3ccccc3n2)cc1	-12	-4.6	-3.4%	11	0.1	2.4%	3%
Cc1ccc(-c2csc3ncnc(SCC(=O)O)c23)cc1	7	0.9	.	7	-0.2	-0.6%	0%
Cc1nnc2c(N3CCN(c4ccccc4F)CC3)nc3ccc(C(=O)c4ccccc4)cc3n12	34	.	0.5%	.	0.5	3.0%	.
CCn1c(=O)n(CC)c2cc(NC(=O)c3ccccc3Cl)ccc21	.	0.3	-1.3%	8	.	2.1%	8%
COc1ccccc1N1CCN(C2CC(=O)N(c3ccccc3)C2=O)CC1 (centres undefined)	.	-6.1	0.0%	-2	.	2.7%	16%
O=C1ON=C(c2ccccc2)/C1=C/c1ccco1	-1	?	0.4%	-4	1.3	-1.4%	50µM*
Cc1ccc(C#N)c(SCCN2CCCCC2)n1	15	12	.	-2	-0.3	3.4%	5%
O=C(COc1ccc([N+](=O)[O-])cc1)NNC(=O)C1COc2ccccc2O1 (centres undefined)	-18	.	1.3%	.	-1.3	3.2%	.
Cc1ccc(CSC2=NS(=O)(=O)c3ccccc32)cc1	.	.	-1.1%	.	-0.5	0.8%	.
CCC(C)NC(=O)c1ccccc1NC(=O)/C(=C/c1ccc(OC)cc1)c1ccccc1 (centres undefined)	8	3.4	-1.2%	-1	-0.3	-0.6%	16%
COc1ncc2ncc(=O)n(Cc3cccs3)c2n1	.	0.3	.	.	.	-0.3%	4%
Cc1cc(C)nc(SCC(=O)Nc2ccc(Br)cn2)n1	12	-1.0	-6.1%	?	0.0	1.4%	3%
Cc1nc2nc(SCC(=O)NCCN3CCOCC3)nn2c(C)c1Cc1ccccc1	-4	3.4	-8.0%	8	-0.6	2.6%	0%
CCn1c(SCC(=O)NC2CC2)nnc1-c1ccc(F)cc1	12	.	1.2%	1	1.6	-0.9%	0%
Cc1ccnc(NC(c2ccsc2)c2ccc3ccc(C)nc3c2O)c1 (centres undefined)	6	-0.8	.	-3	1.1	2.5%	?

Retrieved one by one from the entries so far (2):
SMILES	TRPML1 blocker	Menin-MLL FL inh	ClpP mod	TRPV1 potentiator	TRPML1 ag	PINK1 expr mod	Sfp PPTase inh
CCC(=O)Nc1ccc(C(=O)Nc2ccc3c(c2)OCO3)cc1	27	0.0	-5.8%	7	-0.3	2.1%	12%
COc1cc(Br)c(CN2CCCN(C)CC2)cc1OC	4	1.1	-2.8%	2	-0.6	-1.0%	-2%

Further entries follow.
SMILES	TRPML1 blocker	Menin-MLL FL inh	ClpP mod	TRPV1 potentiator	TRPML1 ag	PINK1 expr mod	Sfp PPTase inh
CSc1cccc(CN2CCC(CO)(Cc3ccccc3)CC2)c1	5	-5.6	.	-39	-0.5	-0.1%	-14%
COc1ccc(OC)c(NC(=O)C2CCCN(S(=O)(=O)c3cccc4nonc34)C2)c1 (centres undefined)	0	0.0	0.4%	-8	-0.3	10%[38.3 µM]	22%
Cc1cc2ccccc2n1CCNC(=O)Cc1ccccc1	19	-18	-5.2%	-6	0.9	-0.8%	22%
Cc1cc(Oc2ccc(-c3ccccc3)cc2)nc(N2CCOCC2)n1	0	-0.4	?	25	1.9	-1.2%	-7%
O=C(Nc1ccc([N+](=O)[O-])cc1)NN1CCCCCC1	3	.	-1.9%	.	1.2	29%	.
O=C(O)CCCCCCCCCC(=O)c1cccs1	26	3.3	0.5%	-3	-0.9	-0.6%	?
O=C(C1CCC(CNS(=O)(=O)c2ccc(Br)s2)CC1)N1CCN(c2ccccc2)CC1 (centres undefined)	15	.	-2.3%	.	2.0	6.6%	.
O=C(CCS(=O)(=O)c1ccccc1)Nc1ccccc1F	-7	0.0	-1.9%	-5	4.9	-1.5%	13%
COc1ccc(S(=O)(=O)N2CCC(N3CCN(Cc4ccccc4)C(=O)C3=O)CC2)cc1	3	.	2.2%	.	-1.0	0.0%	.
COc1cc(NC(=O)C2CCN(S(=O)(=O)Cc3ccccc3)CC2)c(OC)cc1Cl	6	.	1.1%	.	-1.3	2.3%	.
CCCOC(=O)Cn1cnc2scc(-c3ccc(C)cc3)c2c1=O	1	-2.7	.	-4	0.1	2.0%	2%
CC12C=CC3(O1)C(C(=O)N1CCCOC13)C2C(=O)O (centres undefined)	12	0.8	.	13	0.0	1.6%	15%
Cc1ccc(C(=O)NN(CCC(=O)NC(C)(C)C)C2=NS(=O)(=O)c3ccccc32)cc1	-1	-0.7	-2.5%	0	-0.6	1.8%	10%
O=C(C1CC(c2ccccc2O)=NO1)N1CCCC1 (centres undefined)	5	0.3	-1.5%	3	-0.3	.	-26%
CCC[C@H]1CN(c2ccccc2)C(=O)[C@@H]1CC(=O)Nc1ccc(OC)cc1	0	.	0.5%	.	0.7	0.4%	.
CCN(CC)S(=O)(=O)c1cc(NC(=O)COC(=O)c2ccc(NC(=O)CC#N)cc2)ccc1C	1	9.4	-5.1%	2	0.7	3.4%	0%

Screening results as filed in PubChem BioAssay.
